Sfp PPTase inh – inhibitors of Bacillus subtilis Sfp phosphopantetheinyl transferase. Q9F4F7. Biochemical Sfp PPTase activity, qHTS. Potency, µM, for inactives: max response, negative = inhibition, most hits filed as inhibitors. 310,000 tested, 3.5% active. AID 1490; active = well fitted inhibition curve with a large enough effect; inconclusive = small, poorly fitted or top-dose-only effect, or another doubt; inactive = no such curve, though single readings can be large or run the other way;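 note: the enzyme is Sfp with the accession as filed and its product quenches rhodamine fluorescence; potency is the fitted concentration of half-maximal effect; 0% = enzyme reaction without inhibitor and -100% = no enzyme wells; top concentration of the series not given in the record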
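Compounds were incubated with enzyme (final 15 nM) for 15 min at room temperature before substrate addition started the reaction. Fluorescence at 525 nm excitation, 598 nm emission was recorded immediately and after 30 minutes.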
PINK1 modulator – changes PINK1 expression. PINK1 immunofluorescence, high-content cytometry, 24 h. 410,000 tested, 0.2% active. Potency, µM (highest dose often 76.6 µM), for inactives: top-dose activation (PINK1 increase), most hits filed as activators; active = well fitted activation curve with a large enough effect; inconclusive = small, poorly fitted or top-dose-only effect; inactive = flat fitted curve, though single readings scatter; cell line not stated here;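 note: potency is the fitted concentration of half-maximal effect; % of control where 0% means no effect; nearly all actives have a fitted effect of over 65% in size; a mitochondrial uncoupler was the plate control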
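Cells are seeded, rested 12 hours, then given compound at five concentrations or DMSO for 24 hours. After fixation, blocking and antibody staining, PINK1 amount and mitochondrial localization are scored; CCCP serves as control.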
TRPV1 PAM – enhances activation of the human vanilloid receptor TRPV1 | Q8NER1 | TRPV1-expressing cells, Fluo-8 calcium influx, capsaicin EC20 potentiation; host cell line not named in the record; control for the full effect not named in the record | potentiation, % at 8.33 µM | 320,000 tested, 0.02% active | AID 540277; active means potentiation above 80%; inconclusive means 30% to 80%; inactive means below 30%; note: 0% is about no effect
Target sequence (Q8NER1 whole entry, looked up): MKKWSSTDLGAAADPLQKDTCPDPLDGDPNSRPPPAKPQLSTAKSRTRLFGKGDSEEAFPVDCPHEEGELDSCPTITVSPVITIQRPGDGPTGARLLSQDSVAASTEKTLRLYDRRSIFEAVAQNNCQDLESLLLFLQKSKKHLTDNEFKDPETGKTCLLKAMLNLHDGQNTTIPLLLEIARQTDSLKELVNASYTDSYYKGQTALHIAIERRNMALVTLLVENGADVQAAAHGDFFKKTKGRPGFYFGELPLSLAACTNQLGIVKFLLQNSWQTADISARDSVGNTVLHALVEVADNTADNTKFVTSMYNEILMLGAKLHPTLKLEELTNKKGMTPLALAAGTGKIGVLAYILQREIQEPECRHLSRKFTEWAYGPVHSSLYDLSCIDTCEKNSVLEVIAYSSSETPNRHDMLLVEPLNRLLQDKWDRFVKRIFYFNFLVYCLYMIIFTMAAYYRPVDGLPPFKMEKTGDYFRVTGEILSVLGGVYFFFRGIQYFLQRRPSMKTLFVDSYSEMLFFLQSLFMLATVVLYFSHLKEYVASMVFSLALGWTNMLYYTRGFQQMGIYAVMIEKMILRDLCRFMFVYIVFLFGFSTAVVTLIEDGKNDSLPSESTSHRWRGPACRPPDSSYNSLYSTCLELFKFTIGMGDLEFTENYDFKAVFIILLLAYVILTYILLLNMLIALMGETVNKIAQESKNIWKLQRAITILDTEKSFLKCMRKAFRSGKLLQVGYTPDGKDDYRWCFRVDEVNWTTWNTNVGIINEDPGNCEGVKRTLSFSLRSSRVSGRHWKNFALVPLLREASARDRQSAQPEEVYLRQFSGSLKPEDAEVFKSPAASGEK
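TRPV1-expressing cells were cultured overnight at 35.5C and loaded with Fluo-8 calcium dye for 40 to 90 min at room temperature. After a 10 s baseline, compound was added and calcium influx was read kinetically for 3 min (ex 480/em 520 nm).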
TRPML1 blocker – blocks the human TRPML1 channel | activity change, negative = inhibition, % (concentration not given with the values) | AID 624415 | 390,000 tested, 0.02% active | Q9GZU1 | TRPML1-inducible cells, Ca2+ dye fluorescence, FDSS; active compounds read low; inhibition of EC80 agonist-evoked calcium signal; in the data active means activity change below about -50%; inconclusive means about -30% to -50%; inactive means above about -30%;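 note: stimulus is agonist 54-4 at its EC80 concentration; % is set by controls: 0 for no effect and ±100 for the full control effect; the text of the record puts the active cut at -80%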
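TRPML1-DL cells, Tet-induced overnight (~16 h, 37 °C) at 1,500 cells/well, were loaded with Ca8 no-wash dye plus quencher for 45-90 min at room temperature. Compounds were pinned during FDSS kinetic reading; agonist 54-4 at EC80 (4 uM final) then added.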
TRPML1 ag – agonists of human TRPML1 channel; 410,000 tested, 0.12% active; activation, % (concentration not given with the values); Q9GZU1; TRPML1-expressing cells, Ca2+ dye fluorescence, FDSS; host cell line not named in the record; reference of the full effect not given here; in the data active = activation above about 50%; inconclusive = about 30% to 50%; inactive = below about 30%; note: 0% is about no effect; the text of the record puts the active cut at 80%
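Agonist activity was taken from a 110 s kinetic Ca2+ dye read on the FDSS after pinning compounds onto TRPML1-DL cells. The cells were seeded at 1,500/well with Tet inducer, incubated about 16 h, then dye-loaded at room temperature.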
Menin MLL FP FL – inhibitors of human menin-MLL interaction, wild-type MLL peptide | Fluorescence polarization, fluorescein-MLL peptide displacement from menin | FP activity change, % at 61.4 µM | 290,000 tested, under 10 active | AID 1766; inconclusive = falling polarisation curve, or a change in total fluorescence; inactive = total fluorescence flat and polarisation flat or rising; no compound was filed as active; the % refers to the polarisation; negative = inhibition;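 note: % of control where 0% means no effect; inhibitors lower the polarisation; unlabelled MLL peptide was the positive control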
ClpP mod – qHTS Assay for Activators of ClpP. AID 651965, 2013. ATP-dependent Clp protease proteolytic subunit (Bacillus subtilis (strain 168)), P80244. 340,000 tested, 1.9% active. purified B. subtilis ClpP, FRET peptide cleavage, 20 min. Potency, µM (series often up to 57.5 µM), without a hit: at the highest dose activity change, negative = active; active = well fitted falling curve with a large enough effect; inconclusive = small, poorly fitted or top-dose-only effect; inactive = no such curve, though single readings can be large or run the other way; note: potency is the fitted concentration of half-maximal effect; the source files actives as falling curves though it sought activators and does not explain the sign; nearly all actives have a fitted effect of over 65% in size; many hits overshoot -100%
Target sequence (P80244 whole entry, looked up): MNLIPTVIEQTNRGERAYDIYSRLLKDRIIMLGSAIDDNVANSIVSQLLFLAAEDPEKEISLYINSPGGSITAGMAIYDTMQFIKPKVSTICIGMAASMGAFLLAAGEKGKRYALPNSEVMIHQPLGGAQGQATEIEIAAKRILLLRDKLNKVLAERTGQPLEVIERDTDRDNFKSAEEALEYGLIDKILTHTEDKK
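Purified B. subtilis ClpP, 10 microg/mL final in Tris/HCl pH8 with KCl, BSA, glycerol and Tween-20, cleaved an Abz/nitrotyrosine-quenched decapeptide. Fluorescence (ex 320, em 430) was read at 0 and 20 min at room temperature. Delta was normalized to 5.8 microM ADEP and DMSO/no-enzyme controls.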
* marks the source's active call; other numbers are inactive results; & = joins results of further samples.

`Cc1cc([N+](=O)[O-])ccc1NC(=O)C(C)NC1CCCCC1` (configuration not stated) gave Sfp PPTase inh 4.5%, PINK1 modulator -0.5%, TRPV1 PAM 4.1, TRPML1 blocker 21.4, TRPML1 ag -0.2 and Menin MLL FP FL 0.3.
Screening O=C(NCCc1ccccc1)c1ccc2c(=O)[nH]c3c(C(=O)NCC4CCCO4)sc(=S)n3c2c1 (configuration not stated) returned Sfp PPTase inh -27.3%, PINK1 modulator -0.6%, TRPV1 PAM -3.9, TRPML1 blocker 6.7 and TRPML1 ag 1.0.
Screening CCOc1cccc(C(=O)N(Cc2ccc(N(C)C)cc2)CC2CCCO2)c1 (configuration not stated) returned PINK1 modulator -0.3%, TRPML1 blocker 0.9, TRPML1 ag 0.7 and ClpP mod 0.8%.
Screening CC(=O)c1cccc(NC(=O)CSc2n[nH]c(=O)n2C2CC2)c1 returned PINK1 modulator 0.3%, TRPML1 blocker 33.9 and TRPML1 ag -0.4.
Screening Cc1ccc(CNC(=O)CSc2ccsc2[N+](=O)[O-])cc1 returned Sfp PPTase inh 4.8%, PINK1 modulator 4.3%, TRPV1 PAM 9.5, TRPML1 blocker 19.4, TRPML1 ag 0.1 and Menin MLL FP FL 2.9.
Screening O=S(=O)(NC(=S)c1ccccc1)c1ccc(F)cc1 returned Sfp PPTase inh -2.9%, PINK1 modulator 0.8%, TRPV1 PAM 23.0, TRPML1 blocker 1.9, TRPML1 ag 0.2 and Menin MLL FP FL -0.3.
For COc1ccccc1CNC(=O)c1cc(-c2cc(F)ccc2OC)n[nH]1 the results were PINK1 modulator 1.3%, TRPML1 ag -1.2 and ClpP mod -5.9%.
N#CC1=C(N)NC(SCC(=O)c2ccc(Br)cc2)=C(C#N)C12CCCCC2 was read as Sfp PPTase inh 4.7%, PINK1 modulator inconclusive, TRPV1 PAM 6.7, TRPML1 blocker -7.2, TRPML1 ag 0.3, Menin MLL FP FL 3.1 and ClpP mod -2.5%.
Cc1c(C(=O)N2CCN(c3ccc(F)cc3)CC2)sc2nc3n(c(=O)c12)CCC3 was read as Sfp PPTase inh 2.9%, PINK1 modulator 0.6%&0.1%, TRPV1 PAM -3.9, TRPML1 blocker 4.0&-6.2, TRPML1 ag -1.1&-0.6, Menin MLL FP FL 2.5 and ClpP mod -0.4%&0.8%.
COc1ccc(C(=O)NNC(=O)CN2CCC(n3nnc4cc(C)ccc43)CC2)cc1 was read as Sfp PPTase inh 10.0%, PINK1 modulator -0.4%, TRPV1 PAM -0.2, TRPML1 blocker 6.5, TRPML1 ag 1.7, Menin MLL FP FL 2.1 and ClpP mod -10.7%.
CN1OC[C@@H]2CN(Cc3ccc4c(c3)OCO4)[C@H](c3ccc(N4CCCCC4)cc3)C[C@@H]21 was read as PINK1 modulator -0.5%, TRPML1 ag -0.2 and ClpP mod -4.2%.
For O=C(O)c1ccc(CN2C(=O)c3ccc(C(=O)O)cc3C2=O)cc1 the results were Sfp PPTase inh 7.6%, PINK1 modulator -2.3%, TRPV1 PAM 3.8, TRPML1 blocker 0.2, TRPML1 ag 1.7, Menin MLL FP FL -0.5 and ClpP mod 0.5%.
For CC(C)CCn1nnnc1CN1CCN(c2ccc(F)cc2)CC1 the results were Sfp PPTase inh 5.6%, PINK1 modulator -0.3%, TRPV1 PAM 23.8, TRPML1 blocker 21.6, TRPML1 ag 1.3 and Menin MLL FP FL -0.6.
For COc1ccc([C@H]2CC(=O)C=C(c3ccccc3-c3ccccc3)C2)cc1 the results were PINK1 modulator 2.1%, TRPV1 PAM 2.6, TRPML1 blocker -5.1, TRPML1 ag -0.1 and ClpP mod 0.4%.
Screening Cc1nn(CC(=O)NC(=O)NC2CCCC(C)C2C)c(=O)c(C#N)c1C (configuration not stated) returned PINK1 modulator -3.6%, TRPV1 PAM 1.7, TRPML1 blocker 10.5 and TRPML1 ag 0.8.
CCOC(=O)CNC(=O)N1CCCC(C(=O)c2cccc(Cl)c2)C1 (configuration not stated) was read as Sfp PPTase inh 15.9%, PINK1 modulator 2.1%, TRPV1 PAM 2.0, TRPML1 blocker 0.5, TRPML1 ag 0.2, Menin MLL FP FL -0.3 and ClpP mod 0.2%.
Screening CCc1ccc2nc(N(CCCN(C)C)C(=O)c3ccc(S(=O)(=O)N(C)C4CCCCC4)cc3)sc2c1 returned Sfp PPTase inh 44.7µM*, PINK1 modulator 0.2%, TRPV1 PAM -10.7, TRPML1 blocker -2.6, TRPML1 ag 7.5 and ClpP mod -2.9%.
Screening Cc1ccccc1C(=O)NNC(=O)/C=C/c1ccccc1 returned Sfp PPTase inh -2.8%, PINK1 modulator -1.7%, TRPV1 PAM -1.0, TRPML1 blocker 1.1, TRPML1 ag 0.2 and Menin MLL FP FL 0.6.
For Cc1ccc(C(=O)O)cc1NCc1cccnc1 the results were PINK1 modulator -0.2%, TRPML1 blocker 3.7, TRPML1 ag -0.2 and ClpP mod -3.7%.
Screening CC1CN(c2cnn(C(C)C)c(=O)c2Cl)CC(C)O1 (configuration not stated) returned Sfp PPTase inh 5.9%, PINK1 modulator 2.0%, TRPV1 PAM -7.8, Menin MLL FP FL -1.6 and ClpP mod -3.2%.
Nc1ncnc2c1ncn2C1OCC(O)C1O (configuration not stated) was read as PINK1 modulator 25.8%, TRPML1 ag -0.1 and ClpP mod -0.9%.
Screening CN(C)CCCN(C(=O)COc1ccccc1)c1nc2ccc(Cl)cc2s1 returned Sfp PPTase inh -16.0%, PINK1 modulator 3.3%, TRPV1 PAM 2.9, TRPML1 blocker -0.4, TRPML1 ag 1.0 and Menin MLL FP FL 3.1.
`COCCN(C(=O)COC(=O)C12CC3CC(CC(O)(C3)C1)C2)c1c(N)n(Cc2ccccc2)c(=O)[nH]c1=O` gave PINK1 modulator 0.2%, TRPML1 blocker -0.6, TRPML1 ag 0.1 and ClpP mod 0.2%.
For O=S1(=O)N=C(N(CCO)/N=C/C=C/c2ccccc2)c2ccccc21 the results were Sfp PPTase inh -2.1%, PINK1 modulator 2.8%, TRPV1 PAM -4.3, TRPML1 blocker 14.3, TRPML1 ag -0.1, Menin MLL FP FL 4.6 and ClpP mod -9.4%.
For Cc1cc(/C=C2/SC(=S)N(c3cccc(Cl)c3)C2=O)c(C)n1-c1cccnc1 the results were PINK1 modulator 4.2%, TRPML1 blocker 0.1, TRPML1 ag 3.8 and ClpP mod 1.1%.
`COc1ccc(N2CCN(C3CCCN(Cc4ccc(F)cc4Cl)C3)CC2)cc1` (configuration not stated) gave Sfp PPTase inh 4.4%, PINK1 modulator 3.8%, TRPV1 PAM 8.5, TRPML1 blocker 1.0, TRPML1 ag 1.3, Menin MLL FP FL 4.7 and ClpP mod -4.8%.
`Cc1nn2c(NC(C)C)c3c(nc2c1-c1ccccc1)CCC3` gave Sfp PPTase inh -11.4%, PINK1 modulator 0.1%, TRPV1 PAM -14.9, TRPML1 blocker 16.5, TRPML1 ag 0.2, Menin MLL FP FL -1.9 and ClpP mod 1.1%.
Screening Cc1nc2c(-c3ccc(F)cc3)c(C)nn2c(N2CCOCC2)c1C returned Sfp PPTase inh 9.4%, PINK1 modulator -0.3%, TRPV1 PAM 7.0, TRPML1 blocker 2.8, TRPML1 ag 3.0, Menin MLL FP FL 9.0 and ClpP mod 0.5%.
CN1CCCC2(CCN(C(=O)c3cc(C(F)(F)F)cc(C(F)(F)F)c3)CC2)C1 was read as Sfp PPTase inh 3.8%, PINK1 modulator 0.0% and Menin MLL FP FL -0.8.
For CCCN(Cc1cc2cc(OC)ccc2[nH]c1=O)C(=O)c1ccncc1 the results were Sfp PPTase inh -6.8%, PINK1 modulator 3.5%, TRPV1 PAM 1.0, TRPML1 blocker -6.8, TRPML1 ag 1.3, Menin MLL FP FL 3.5 and ClpP mod 31.6µM*.
Screening Cc1ccc(-c2cc(C(=O)O)n(-c3ccc(S(N)(=O)=O)cc3)n2)cc1 returned Sfp PPTase inh -10.6%, PINK1 modulator 0.0%, TRPV1 PAM -12.1, TRPML1 blocker 11.4, TRPML1 ag 0.1, Menin MLL FP FL 11.1 and ClpP mod -4.6%.
CC(C)c1nnc(NC(=O)C2CCCN2C(=O)Nc2cccc(Cl)c2)s1 (configuration not stated) was read as Sfp PPTase inh -3.6%, PINK1 modulator 5.1%, TRPV1 PAM -8.8, TRPML1 blocker 1.1, TRPML1 ag -0.4 and Menin MLL FP FL -0.5.
For O=C(Nc1cn(-c2ccccc2)nc1-c1ccccc1)c1ccccc1 the results were Sfp PPTase inh -4.1%, PINK1 modulator 1.1%, TRPV1 PAM -0.9, TRPML1 blocker -17.9, TRPML1 ag -0.3, Menin MLL FP FL 1.8 and ClpP mod -14.1%.
`CC1CCN(S(=O)(=O)c2ccc(NC(=O)CN3CCCC3)cc2)CC1` gave Sfp PPTase inh 4.3%, PINK1 modulator 0.6%, TRPV1 PAM 10.0, TRPML1 blocker 7.7, TRPML1 ag 0.2 and Menin MLL FP FL 2.2.
COc1ccc(/C=N/OC/C(O)=C(\C#N)c2nc3ccccc3[nH]2)cc1OC was read as Sfp PPTase inh -10.8%, PINK1 modulator 3.8%, TRPV1 PAM 2.8, TRPML1 blocker 11.5, TRPML1 ag 1.0, Menin MLL FP FL 5.1 and ClpP mod -2.1%.
C=CCOC(=O)C1=C[C@H](c2cn(C(C)=O)c3ccccc23)[C@@H](CCCO)[C@H](OCC)O1 was read as Sfp PPTase inh -6.4%, PINK1 modulator 0.8%, TRPV1 PAM 20.0, TRPML1 blocker 10.5, TRPML1 ag -0.4, Menin MLL FP FL 1.1 and ClpP mod 0.5%.
Screening CC(C)OC(=O)C1C(=O)CC(C)(O)C(C(=O)OC(C)C)C1c1cccnc1 (configuration not stated) returned Sfp PPTase inh 13.3%, PINK1 modulator -2.3%, TRPV1 PAM -8.2, TRPML1 blocker 1.3, TRPML1 ag -0.1, Menin MLL FP FL -2.9 and ClpP mod -0.2%.
For COc1ccc(Cl)cc1NC(=O)COC(=O)c1cc(NS(=O)(=O)c2cccs2)ccc1O the results were Sfp PPTase inh inconclusive, PINK1 modulator 5.9%, TRPV1 PAM 2.5, TRPML1 blocker -24.1, TRPML1 ag -0.5, Menin MLL FP FL 4.0 and ClpP mod -0.7%.
`CN1CCN(CCCNC(=S)Nc2ccc(F)c(Cl)c2)CC1` gave Sfp PPTase inh 1.7%, PINK1 modulator -0.2%, TRPV1 PAM -0.5, TRPML1 blocker 19.0, TRPML1 ag -0.4 and Menin MLL FP FL -1.2.

Screening results deposited in PubChem by National Center for Advancing Translational Sciences (NCATS).
